# Bioassay records deposited in PubChem BioAssay by several laboratories.
# PKD1 kinase inh = blocks activity of human protein kinase D1 | inhibition, %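 (about 10 µM by stock and volumes)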 | PKD1 kinase fluorescence polarization assay | hit rate 0.056% among 200,000;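 active = inhibition of 50% or more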;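 also: controls were vehicle for no effect and a reference inhibitor for full effect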
# Target sequence (Q15139 whole entry, looked up): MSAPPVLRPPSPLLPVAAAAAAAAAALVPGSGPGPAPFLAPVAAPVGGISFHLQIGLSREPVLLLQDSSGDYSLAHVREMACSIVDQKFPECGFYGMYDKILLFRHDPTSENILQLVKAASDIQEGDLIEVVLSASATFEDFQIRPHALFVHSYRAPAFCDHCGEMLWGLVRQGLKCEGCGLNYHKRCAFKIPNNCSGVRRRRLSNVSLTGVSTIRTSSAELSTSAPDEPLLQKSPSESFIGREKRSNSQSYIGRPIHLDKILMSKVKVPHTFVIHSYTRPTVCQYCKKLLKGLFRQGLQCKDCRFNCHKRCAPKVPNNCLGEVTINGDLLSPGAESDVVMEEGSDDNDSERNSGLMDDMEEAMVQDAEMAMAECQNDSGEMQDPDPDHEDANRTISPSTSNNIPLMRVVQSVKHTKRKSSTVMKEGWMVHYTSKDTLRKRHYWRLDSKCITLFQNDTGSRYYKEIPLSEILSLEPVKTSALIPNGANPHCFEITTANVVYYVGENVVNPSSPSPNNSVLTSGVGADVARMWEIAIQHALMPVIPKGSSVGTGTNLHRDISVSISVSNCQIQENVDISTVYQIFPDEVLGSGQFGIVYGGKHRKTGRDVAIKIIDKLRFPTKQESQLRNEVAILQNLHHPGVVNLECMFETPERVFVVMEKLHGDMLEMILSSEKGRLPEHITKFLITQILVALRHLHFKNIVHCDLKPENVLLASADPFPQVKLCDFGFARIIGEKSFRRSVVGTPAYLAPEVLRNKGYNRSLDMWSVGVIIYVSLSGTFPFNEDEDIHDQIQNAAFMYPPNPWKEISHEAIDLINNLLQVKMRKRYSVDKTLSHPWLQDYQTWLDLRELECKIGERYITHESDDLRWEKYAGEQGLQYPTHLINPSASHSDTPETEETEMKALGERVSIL
# RGS16-Gao = regulators of human RGS16-Galphao interaction | O15492+P09471 | bead-based flow cytometry RGS16-Galphao binding, fluorescence; actives lie on both sides | binding response (% of control), % at 10 µM | hit rate 0.38% among 220,000 | AID 1441;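 active = below 25% or above 175%, edge rows of some plates excepted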;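 also: Galphao activated by GDP with aluminum fluoride before binding; 100% = wells without compound and 0% = beads without RGS; some results beyond the cut were filed as inactive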
# HSV replic up = increases HSV replication in cells | HSV replication augmentation in cells, fold increase | maximum fold increase | hit rate 0.005% among 220,000;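 active = peak rise of 1.5-fold or more in the series; inconclusive = self-fluorescent or not available for retest; tested in PC3 cells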;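 also: first round at 10 µM; read as green reporter fluorescence; hits show the peak of a series up to 25 µM; 1 = signal of infected wells without compound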
# GALR2 agonist = GALR2 (human) receptor agonism; O43603; GALR2-expressing cells, agonist activation read-out; activation, %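 (tested at 5 µM)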; hit rate 0.48% among 140,000; AID 803;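 active = above mean plus 3 SD of all compounds, about 5% in these data, not always enough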;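 also: 0% = vehicle buffer wells and 100% = reference agonist at full effect; tested in CHO reporter cells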
# INS promoter inh = TRM-6 insulin promoter activity inhibition | TRM-6 cells (human fetal islet line), insulin promoter-eGFP reporter, imaging; reporter expression induced with tamoxifen | inhibition, % at 2 µM | hit rate 0.9% among 130,000 | AID 1273;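 active = inhibition above the mean plus 3 SD, with well images judged a real hit on visual review, cut at about 60% in these data, passing the limit was not always enough; inconclusive = inhibition over the cutoff but images rejected on review; inactive = inhibition not above the cutoff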
# INS promoter inh cell count = further read-out of INS promoter inh, marked with its call; normalized cell count, %; measured here: cell count, toxicity; reference of the scale not given here;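 cells exposed to compound for 48 h; stained nuclei by imaging scaled within each plate; lower means fewer cells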
# HSV replic up primary fold = second read-out of HSV replic up, no call of its own (marks repeat the call); fold increase; compound at 10 µM; measured here: primary screen fold increase 10 uM; tested in PC3 cells;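 GFP signal in the first replicate; 1 = infected wells without compound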
# * = called active by the depositor; i = inactive; u = inconclusive; x = no result given; [ ] = dose if it differs, or a comment.
SMILES,PKD1 kinase inh,RGS16-Gao,HSV replic up,HSV replic up primary fold,GALR2 agonist,INS promoter inh,INS promoter inh cell count
COc1ccc(CCNC(=O)COC(=O)C2CC2)cc1,-7,100,i,1,x,x,x
COc1ccc(C2/C=C\CN(C(=O)C3CC3)[C@H](Cc3ccccc3)C(=O)N2Cc2ccc(F)cc2)cc1 (stereo not given in full),x,91,i,0.95,x,x,x
O=C(CCn1c(=O)[nH]c2ccccc2c1=O)N1CCN(c2cccc(C(F)(F)F)c2)CC1,0,101,i,0.88,-1.7,x,x
CN(C)S(=O)(=O)c1ccc(NC(=O)CN2CCOCC2)cc1,x,89,i,0.78,x,x,x
CC1(C)OC(=O)N(c2ccccn2)C1(C)O (stereo not given),-8,95,i,0.93,1.1,-12,129
Cc1ccc(S(=O)(=O)N2CCC(C(=O)Nc3nnc(C45CC6CC(CC(C6)C4)C5)s3)CC2)cc1,1,95,i,1,-1.1,x,x
Cc1cccc(NC(=O)c2sc(NC(=O)c3ccco3)c(C#N)c2C)c1C,0,79,i,1.1,-0.5,41,103
Cc1ccc(OCCCn2ccnc2)c([N+](=O)[O-])c1,-3,100,i,0.98,-1.1,-22,67
Cc1[nH]c2ccccc2c1C(=O)CSC(=S)N(C)C,-4,112,i,0.79,0.5,16,162
O=C1CSC(=Nc2ccc(O)cc2)N1c1ccc(O)cc1,-5,101,x,x,-2.2,x,x
CC(=O)c1nc(N2C(=O)CC(Cc3cccc(C)c3)C2=O)sc1C (stereo not given),-6,51,i,1.2,-0.7,32,65
Cc1ccc(-n2ncc3c(NNC(=O)c4ccco4)ncnc32)c(C)c1,-4,110,i,0.9,x,-17,118
Cc1cccc(C)c1NC(=O)COC(=O)c1ccc([N+](=O)[O-])o1,-2,98,i,1,x,x,x
O=S(=O)(c1ccc(F)cc1)N1CCN(C(=S)NCc2ccccc2)CC1,-4,102,i,0.98,x,x,x
Cc1cc(N2CCCC2=O)ccc1S(=O)(=O)Nc1c(C)nn(C)c1C,4,100,i,0.93,x,x,x
COc1ccc(/C(N)=N/OC(=O)COc2ccccc2Cl)cc1,-10,96,x,x,0.0,-25,110
Cc1sc2nc(C3CC3)nc(SCC(=O)N3CCc4ccccc4C3)c2c1C,-4,96,i,0.99,-1.2,x,x
COc1ccc(C2=NN(C(=S)Nc3ccccc3)C(c3ccccc3)C2)cc1 (stereo not given),1,385*[activator],i,1.1,-2.1,6,98
O=C(CCSc1nnc(-c2ccc(O)cc2)o1)N1CCOCC1,-2,100,i,1,x,x,x
O=S(=O)(Nc1cccc(-c2ccc3nncn3n2)c1)c1cccs1,9,105,i,0.87,x,x,x
CN(Cc1c(F)cccc1Cl)c1ccc(S(=O)(=O)N2CCOCC2)cn1,19,106,i,0.74,-1.0,31,108
Cc1onc(-c2ccccc2Cl)c1C(=O)Nc1nc2c(s1)CCCC2,-6,96,i,1.1,-2.0,-57,76
c1ccc2c(c1)OCCOCCOCCOCCOCCOc1ccccc1OCCOCCOCCO2,-8,103,i,1.1,-0.6,x,x
O=C(NCc1ccccc1)C1c2ccccc2Oc2ccccc21,-5,88,i,1.2,x,x,x
COc1ccc(S(=O)(=O)NCCC(C)C)cc1OC,-5,107,i,0.8,-0.5,-160,98
SMILES,PKD1 kinase inh,RGS16-Gao,HSV replic up,HSV replic up primary fold,GALR2 agonist,INS promoter inh,INS promoter inh cell count
Cc1ccccc1NC(=O)Cc1nnc(SCC(=O)Nc2ccccc2)n1C,-10,96,i,1.1,x,x,x
CN1C[C@@H]2C[C@@H](c3cccn3-c3nccs3)N3CCC[C@@]23C1=O,-1,89,i,1.2,x,x,x
Cc1cc(C)c(NC(=O)C[N+](C)(C)CC(O)COc2cccc3ccccc23)c(C)c1 (stereo not given),-3,106,i,0.79,x,-57,56
CC(NC(=O)CCn1nc(-c2ccc(Cl)cc2)ccc1=O)c1ccccc1 (stereo not given),-1,100,i,0.95,x,-33,117
Cc1cc(=S)cc(C)n1CCCn1ccnc1,-6,95,i,0.95,1.0,x,x
COC(=O)C(/C=N/OCc1ccc([N+](=O)[O-])cc1)NC(=O)c1cccc(Cl)c1 (stereo not given),-5,112,i,0.95,1.2,17,85
CCOC(=O)c1cn(Cc2cccc(Cl)c2)c2cc(C)nn2c1=O,x,107,i,1.1,x,x,x
CCOc1ccc(C(=O)CCc2nc3ccccc3s2)cc1,8,102,i,0.79,-0.6,-17,70
Cc1[nH]n2c(=O)c(C#N)c(-c3ccccc3)nc2c1-c1ccccc1,-1,100,i,0.9,-3.3,7,142
CC(=O)Nc1cccc(NC(=O)CSc2ccc(C(F)(F)F)cc2[N+](=O)[O-])c1,-14,101,i,1.1,-2.4,-60,66
N#CC(C#N)=Cc1cn(-c2ncc(C(F)(F)F)cc2Cl)c2ccccc12,0,98,i,0.86,-2.8,-19,143
CC(CCCC(C)(C)O)NC(=O)c1cc(COc2ccc3ncccc3c2)on1 (stereo not given),2,86,i,0.91,x,x,x
CCNC(=O)C(=O)N/N=C/c1cc([N+](=O)[O-])ccc1O,4,88,i,0.96,x,-13,82
COc1ccc(C(=O)CCC(=O)Nc2cccc(Cl)c2)cc1,-1,101,i,1,x,-14,55
CC(C)Cc1nc2oc3c(Cl)ncnc3c2c2c1CCC2,-15,136,i,0.47,-1.9,-38,63
COC(=O)CC(N)c1ccc(OC)c2ccccc12 (stereo not given),2,103,i,0.94,-1.5,-29,102
Cc1cc(Br)cc(C)c1OCC(=O)NNC(=O)CCC(=O)NCc1ccccc1,2,101,i,0.94,x,33,58
CC1=C(C(=O)Nc2ccccc2C)C(c2ccccc2)NC(=O)N1 (stereo not given),-1,101,i,0.9,-0.1,x,x
COc1ccc(/C(=N\Nc2ccccc2C(=O)O)c2ccccc2)cc1,-1,97,i,0.89,x,x,x
COc1cc(OC)cc(C(=O)/C=C2\Sc3ccccc3N2C)c1,8,100,i,1.2,x,x,x
COc1ccc(CN(C(=O)CSc2nnc(-c3ccc(F)cc3)o2)c2ccc(F)cc2)cc1,-1,101,i,0.9,-0.1,-115,126
Nc1c(C(=O)O)sc2nc(-c3ccccc3)cc(-c3ccccc3)c12,x,97,i,0.99,x,x,x
CC12CCC(=O)N1C(C(=O)O)Cc1c2[nH]c2ccccc12 (stereo not given),0,99,x,x,-2.8,x,x
Cc1ccc(C2(C)NC(=O)N(CC(=O)Nc3cc(S(=O)(=O)N4CCOCC4)ccc3C)C2=O)cc1 (stereo not given),-4,113,i,0.98,-0.6,0,101
O=C(NCc1ccco1)c1cc2cc3ccc(Cl)cc3nc2o1,4,116,u,x,-2.3,-27,133

# 4 records picked at random from the list so far:
SMILES,PKD1 kinase inh,RGS16-Gao,HSV replic up,HSV replic up primary fold,GALR2 agonist,INS promoter inh,INS promoter inh cell count
Nc1c(C(=O)O)sc2nc(-c3ccccc3)cc(-c3ccccc3)c12,x,97,i,0.99,x,x,x
O=C(NCc1ccco1)c1cc2cc3ccc(Cl)cc3nc2o1,4,116,u,x,-2.3,-27,133
CC(CCCC(C)(C)O)NC(=O)c1cc(COc2ccc3ncccc3c2)on1 (stereo not given),2,86,i,0.91,x,x,x
COC(=O)C(/C=N/OCc1ccc([N+](=O)[O-])cc1)NC(=O)c1cccc(Cl)c1 (stereo not given),-5,112,i,0.95,1.2,17,85

# Continued.
SMILES,PKD1 kinase inh,RGS16-Gao,HSV replic up,HSV replic up primary fold,GALR2 agonist,INS promoter inh,INS promoter inh cell count
CCN(CC)c1ccc2cc(-c3nnc(-c4ccccc4)o3)c(=O)oc2c1,-6,96,u,x,1.2,12,128
Cc1cc(C(=O)Nc2nc3c(C)cccc3s2)c(C)o1,-1,17*,u,x,0.0,-13,39
CCN(CC)S(=O)(=O)c1cccc(C(=O)OCC(=O)c2ccc3c(c2)NC(=O)CO3)c1,-8,109,i,1.1,-2.2,-7,109
Cc1ccc(S(=O)(=O)N(CC(=O)NCC2CCCO2)c2cccc([N+](=O)[O-])c2)cc1 (stereo not given),-3,98,i,1.1,x,x,x
CCOP(=O)(OCC)C(Nc1ccccc1)c1cc(OC)ccc1OC (stereo not given),2,141,i,0.95,-1.6,32,73
O=C(O)CSCC(=O)Nc1ccc(Br)c(C(F)(F)F)c1,x,-12*,i,0.89,x,x,x
CCN1CCN(S(=O)(=O)c2cc(C(=O)O)ccc2Cl)CC1,x,101,i,1,x,x,x
CCn1c(O)c(C=NC2CCCC2)sc1=S,-1,85,i,1,-2.7,-22,216
O=C(N/N=C/c1ccncc1)c1cc2ccccc2o1,1,44,i,1.1,-0.5,24,65
CC(C)(C)OC(=O)[C@H]1[C@H](c2ccc([N+](=O)[O-])cc2)C2(C(=O)c3ccccc3C2=O)C2c3ccccc3C=NN21 (stereo not given in full),-4,31,i,1,-1.7,26,39
O=C(Nc1ccc(-c2nc3ncccc3o2)cc1)c1ccc(Br)o1,-8,38,i,0.94,2.6,29,17
CC(C)(C)NC(=O)NC(=O)COC(=O)c1cccc(S(=O)(=O)N2CCCCC2)c1,10,107,i,1,1.2,36,136
CCC(=O)Nc1ccc(-c2nc3ccccc3c(=O)o2)cc1,-3,107,i,1,x,x,x
Fc1ccc(Cl)cc1/C=N/n1cnnc1SCc1ccccc1,0,106,i,1.1,-1.9,-30,132
O=C1CCC([N+](=O)[O-])C(c2ccc(Cl)cc2Cl)N1 (stereo not given),-8,101,i,0.9,-0.7,-6,103
Cn1cccc1CNC(=O)Nc1ccc(Cl)c(Cl)c1,-9,107,i,0.96,-0.7,x,x
O/N=C/c1ccc(OCc2ccccc2F)c(Cl)c1,-5,84,i,0.98,-0.8,-21,112
CCn1c(SCC(=O)Nc2ccc3c(c2)OCO3)nnc1-c1cnccn1,-1,101,i,0.79,-1.9,3,116
Cc1cccc(C)c1NC(=O)NN=C1CCCCC1,x,101,i,0.97,x,x,x
C#CC1(O)CC(C)N(C)C(C)C1 (stereo not given),-13,105,i,0.91,-0.5,-56,114
CCn1ncc(Cl)c1C(=O)NC(=S)Nc1c(C)cc(C)cc1[N+](=O)[O-],-12,103,i,1,-0.3,-293,113
COc1cccc(C2CC(c3ccc(Cl)cc3)Nc3nc(N)nn32)c1 (stereo not given),-2,104,i,0.92,0.1,x,x
N#Cc1nc(-c2ccccc2)oc1NCC1CCCO1 (stereo not given),-10,103,i,0.97,-1.6,-13,86
c1cc2c(cc1Cn1cnnn1)OCO2,-5,100,i,0.96,-0.7,x,x
COC(C[C@@H](O)C[C@H](O)[C@@H](C)OCc1ccccc1)OC,x,101,i,0.74,x,x,x

# Printed as active in RGS16-Gao (from the list above):
Structure	PKD1 kinase inh	RGS16-Gao	HSV replic up	HSV replic up primary fold	GALR2 agonist
COc1ccc(C2=NN(C(=S)Nc3ccccc3)C(c3ccccc3)C2)cc1 (stereo not given)	1	385*[activator]	i	1.1	-2.1
Cc1cc(C(=O)Nc2nc3c(C)cccc3s2)c(C)o1	-1	17*	u	x	0.0
O=C(O)CSCC(=O)Nc1ccc(Br)c(C(F)(F)F)c1	x	-12*	i	0.89	x

# Following part:
SMILES,PKD1 kinase inh,RGS16-Gao,HSV replic up,HSV replic up primary fold,GALR2 agonist,INS promoter inh,INS promoter inh cell count
CCCOC(=O)c1ccc(S(N)(=O)=O)o1,2,116,i,0.9,-0.5,34,102
O=C1CC(c2ccccc2)Cc2nc(NC3CC3)ncc21 (stereo not given),11,100,i,0.92,x,x,x
CC(C)CNC(=O)C(=O)NCc1ccccn1,-1,100,i,0.98,x,0,80
CCOc1ccc(C(=O)NCc2cccnc2)cc1[N+](=O)[O-],2,102,i,0.93,x,x,x
CCCCc1nc(Cl)c(C#N)c2c1CSC(C)(C)C2,12,100,i,1,0.8,x,x
COc1cc2c(cc1OC)C(c1cccs1)N(C(=O)c1ccncc1)CC2 (stereo not given),-2,99,i,0.8,x,x,x
Cc1cc(=O)oc2cc(OCC3CC(c4ccc(Cl)cc4)=NO3)ccc12 (stereo not given),-4,106,i,1,-0.6,-62,94
O=C(CSc1nnc(COc2cccc3cccnc23)o1)c1ccc(F)cc1,-5,98,i,0.87,-0.4,-50,85
COc1ccc(Cn2c(-c3ccc(OC)cc3)nc3ccccc32)cc1,-4,108,x,x,0.1,-9,113
CC1CCN(C(=O)Cn2cc(C#N)c3ccccc32)CC1,-1,104,i,0.79,-1.2,6,94
CCn1cc(C2=NC(C)(C)CO2)c2ccccc21,-7,103,i,1.1,-0.9,23,132
Cc1ccc(SCc2ccc(C(=O)Nc3cc([N+](=O)[O-])ccc3C)cc2)cc1,5,90,i,1,-1.7,x,x
Cc1cccc(-n2c(-c3ccoc3C)n[nH]c2=S)c1,-3,92,i,0.89,-1.7,-30,114
O=C(NC(Cc1ccccc1)c1ccc2c(c1)OCCCO2)c1ccccc1 (stereo not given),-1,100,i,1,-2.6,14,119
